Bioassay records: PubChem BioAssay, Broad Institute
Vaccinia stage: blocks a specific stage of Vaccinia orthopoxvirus infection; activity change (mCherry), % (no concentration beside the values); hit rate 0.01% among 89,000; AID 1053133; Vaccinia-infected cells, mCherry/Venus stage reporter fluorescence; stronger effect = lower value; some inactives read as strong as hits;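 active = mCherry past -33% and 40 or more points under the early reporter, replicates agreeing; inconclusive = past -33% without that gap or agreement; tested in A549 cells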;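 also: scaled between vehicle wells and reference inhibitor wells; 23 nL library stock went into each well; one replicate is shown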
Vaccinia stage Venus: recorded beside Vaccinia stage, whose call it bears; activity change (Venus), %; measured here: Venus reporter, other viral stage;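 negative = less Venus signal; first of two replicates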
Starred values were filed as active, the others as inactive; u = inconclusive; x = not tested or not shown; & = joins results of further samples. Only part of the results is shown. The share of hits here may be higher or lower than overall.

SMILES | Vaccinia stage | Vaccinia stage Venus
CC(C)CC#Cc1ccc2c(c1)O[C@@H](CN(C)S(=O)(=O)c1cccc(F)c1)[C@H](C)CN([C@H](C)CO)S2(=O)=O | -17 | -16
CCCNC(=O)N(C)C[C@H]1Oc2cc(-c3ccc(C)cc3)ccc2S(=O)(=O)N([C@H](C)CO)C[C@@H]1C | -19 | -14
Cc1noc(C)c1NC(=O)N[C@@H]1CC[C@H](CCNC(=O)C2CC2)O[C@H]1CO | 9 | 8
C[C@@H]1CN([C@H](C)CO)C(=O)c2cccc(NC(=O)C3CCOCC3)c2O[C@H]1CN(C)Cc1ccc(C(=O)Nc2ccccc2N)cc1 | 4 | 2
Cc1ccc(S(=O)(=O)Nc2cccc3c2O[C@@H](CN(C)CC2CCCCC2)[C@@H](C)CN([C@@H](C)CO)C3=O)cc1 | -19 | -17
O=C1CNC[C@H]2[C@H](c3ccc(C#CC4CCCCC4)cc3)[C@H](CO)N12 | -2 | -6
C[C@@H](NC(=O)C[C@@H]1C=C[C@H](NC(=O)Cc2ccccn2)[C@@H](CO)O1)c1ccccc1 | 9 | 3
Cc1noc(C)c1NC(=O)N1C[C@H](O)COC[C@H]2O[C@@H](CC(=O)NCC3CCCCC3)CC[C@@H]21 | 7 | 3
O=C(C[C@@H]1CC[C@H]2[C@@H](COC[C@H](O)CN2Cc2cc(F)ccc2F)O1)N1CCc2ccccc2C1 | 3 | -6
Cc1ccccc1-c1ccc([C@H]2[C@H]3CN(C(=O)Nc4ccc(F)cc4)CCCCN3[C@H]2CO)cc1 | -35 | -43
N#C[C@@H]1[C@@H](c2ccccc2-c2ccccc2)[C@H](CO)N1C(=O)NC1CCCCC1 | -15 | -7
COc1ccc(S(=O)(=O)Nc2ccc3c(c2)CC(=O)N([C@@H](C)CO)C[C@@H](C)[C@H](CN(C)Cc2ccc(Oc4ccccc4)cc2)O3)cc1 | u | x
CC(C)C#Cc1cnc2c(c1)C(=O)N([C@@H](C)CO)C[C@@H](C)[C@H](CN(C)C(=O)c1cccnc1)O2 | 5 | 5
CN1C(=O)c2cc(NC(=O)c3cccs3)ccc2OC[C@H]2O[C@@H](CC(=O)O)CC[C@H]21 | 7 | 8
C[C@@H]1CN([C@@H](C)CO)C(=O)c2cc(NC(=O)C3CC3)ccc2O[C@H]1CN(C)C(=O)Nc1ccccc1 | 12 | 9
COc1ccc(S(=O)(=O)Nc2ccc3c(c2)CC(=O)N([C@@H](C)CO)C[C@H](C)[C@@H](CN(C)S(=O)(=O)c2ccc(C)cc2)O3)cc1 | 4 | -4
C[C@@H]1CN([C@H](C)CO)S(=O)(=O)c2ccc(-c3cccnc3)cc2O[C@@H]1CN(C)C(=O)CC1CC1 | 15 | 2
Cc1noc(C)c1S(=O)(=O)Nc1ccc2c(c1)CC(=O)N([C@@H](C)CO)C[C@@H](C)[C@@H](CN(C)Cc1ccccc1)O2 | -2 | -3
CN1C(=O)c2cc(NC(=O)c3cscn3)ccc2OC[C@H]2O[C@@H](CC(=O)N3CCCCC3)CC[C@@H]21 | 7 | 4
CNC[C@H]1Oc2ccc(NC(=O)Nc3cccc4ccccc34)cc2CC(=O)N([C@H](C)CO)C[C@@H]1C | 13 | 4
C[C@@H]1CCCCO[C@@H](CN(C)S(=O)(=O)c2cccs2)[C@H](C)CN([C@H](C)CO)C(=O)c2cc(NC(=O)C3CCCCC3)ccc2O1 | u | x
CCNC(=O)C[C@H]1CC[C@@H]2[C@H](COC[C@H](O)CN2C(=O)C2CCCC2)O1 | 7 | -2
CNC[C@H]1OCCCC[C@@H](C)Oc2ccc(NC(=O)CCC(F)(F)F)cc2C(=O)N([C@@H](C)CO)C[C@H]1C | -8 | -1
CN1C(=O)c2cc(NC(=O)c3cccs3)ccc2OC[C@@H]2O[C@H](CC(=O)N3CCOCC3)CC[C@H]21 | 11 | 6
CCC(=O)N1CC2(C1)[C@H](c1ccccc1)[C@@H](CO)N2CC1CC1 | -7 | -3
COc1ccc2c3c([nH]c2c1)[C@@H](CO)N(C(=O)CN(C)C)CC31CCN(Cc2cncnc2)CC1 | -4 | -3
COc1ccc(S(=O)(=O)N(C)C[C@@H]2Oc3ccc(NS(=O)(=O)c4cccs4)cc3C(=O)N([C@H](C)CO)C[C@H]2C)cc1 | -2 | 14
CC(C)C#Cc1cnc2c(c1)C(=O)N([C@H](C)CO)C[C@@H](C)[C@H](CN(C)C(=O)Nc1ccccc1F)O2 | 7&2 | 9&8
C[C@@H]1CN([C@@H](C)CO)C(=O)c2cc(NS(=O)(=O)c3cccs3)ccc2O[C@H]1CN(C)S(=O)(=O)c1cn(C)cn1 | -2 | -20
CCC(=O)N(C)C[C@H]1Oc2ncc(-c3ccc(F)cc3)cc2C(=O)N([C@@H](C)CO)C[C@H]1C | 7 | -3
COc1ccc2c3c([nH]c2c1)[C@@H](CO)N(C(=O)c1ccncc1)CC31CCN(C(=O)Nc2cccc(F)c2)CC1 | 15 | 5
C[C@H]1CN([C@@H](C)CO)C(=O)c2cc(C#CC(C)(C)O)cnc2O[C@@H]1CN(C)C(=O)C1CCC1 | 10 | 5
CCN1[C@@H]2c3ccc(-c4ccc(OC)cc4)c(=O)n3C[C@@H]2[C@@H](CO)[C@@H]1C(=O)NC1CCC1 | -7 | 1
C[C@@H]1CN([C@H](C)CO)C(=O)c2cc(NS(=O)(=O)c3ccc(F)cc3)ccc2O[C@@H]1CN(C)CC1CCCCC1 | 9 | 17
COc1ccc(CN(C)C[C@@H]2Oc3ccc(NS(=O)(=O)c4ccccc4)cc3CC(=O)N([C@@H](C)CO)C[C@H]2C)cc1 | -4 | -7
CO[C@@H]1CN(C)C(=O)c2ccc(NS(=O)(=O)c3ccccc3)cc2OC[C@H](C)N(C(=O)NC(C)C)C[C@H]1C | -1 | 2
COc1ccc(S(=O)(=O)N[C@@H]2CC[C@@H](CC(=O)NCCc3ccccc3)O[C@@H]2CO)cc1 | 3 | -3
CCC(=O)N1[C@@H]2c3cccc(=O)n3C[C@H]1[C@H](CO)[C@H]2C(=O)N1CCc2ccccc2C1 | 14 | 5
COc1ccc2c3c(n(C)c2c1)[C@H](CO)N(C(=O)Nc1ccccc1F)CC31CCN(C(=O)c2ccccc2F)CC1 | u | x
CCCNC(=O)N1[C@H](CO)[C@H](c2ccccc2)[C@H]1CNC(=O)C1CCCCC1 | 0 | 0
COCCNC(=O)c1cc2c(c(-c3cccc(-c4cccc(F)c4)c3)n1)[C@H](CCO)N([S@@](=O)C(C)(C)C)C2 | -9 | 9
C[C@@H](NC(=O)C[C@@H]1C=C[C@@H](NC(=O)c2cccnc2)[C@H](CO)O1)c1ccccc1 | -1 | 0
COc1ccccc1CN1[C@H](CO)[C@@H](c2ccccc2)C12CN(C(=O)c1ccccn1)C2 | 2 | -4
Cc1noc(C)c1NC(=O)Nc1ccc2c(c1)CC(=O)N([C@@H](C)CO)C[C@@H](C)[C@H](CN(C)C(=O)Nc1c(C)noc1C)O2 | 12 | 3
CO[C@H]1CN(C)C(=O)c2ccc(NC(=O)C3CC3)cc2OC[C@H](C)N(C)C[C@H]1C | 9 | -1
COc1cccc(NC(=O)N2C[C@H](O)COC[C@@H]3O[C@@H](CC(=O)NC4CCC4)CC[C@H]32)c1 | 6 | 11
CN1[C@@H]2c3ccc(-c4ccc(F)cc4)c(=O)n3C[C@H]1[C@H](CO)[C@H]2C(=O)Nc1nccs1 | 8 | 13
C[C@@H]1CN([C@@H](C)CO)C(=O)c2cc(C#Cc3cccnc3)cnc2O[C@H]1CN(C)Cc1ccccc1 | -5 | -4
Cc1ccc(S(=O)(=O)N[C@@H]2CC[C@@H](CC(=O)N3CCC(Cc4ccccc4)CC3)O[C@@H]2CO)cc1 | -19 | -12
C[C@H]1CN([C@@H](C)CO)C(=O)c2cc(Br)cnc2O[C@H]1CN(C)S(=O)(=O)c1ccccc1F | 6 | 5
C#CCN1[C@H](/C=C/C2CC2)[C@H](Cc2ccccc2)OC(=O)[C@@H]1Cc1ccccc1 | 7 | -3
C[C@H](CO)N1C[C@H](C)[C@@H](CN(C)S(C)(=O)=O)Oc2ccc(NC(=O)Nc3ccc(C(F)(F)F)cc3)cc2CC1=O | 1 | -5
Cc1noc(C)c1S(=O)(=O)Nc1ccc2c(c1)C(=O)N([C@@H](C)CO)C[C@@H](C)[C@@H](CN(C)CC1CCCCC1)OCCCC[C@H](C)O2 | u | x
CNC[C@@H]1Oc2ccc(NC(=O)Nc3ccccc3)cc2C(=O)N([C@H](C)CO)C[C@@H]1C | 8 | -3
CC(C)C#Cc1cnc2c(c1)C(=O)N([C@@H](C)CO)C[C@H](C)[C@@H](CN(C)C(=O)c1cccnc1)O2 | 10 | 6
CC(C)NC(=O)Nc1ccc2c(c1)C(=O)N([C@H](C)CO)C[C@H](C)[C@@H](CN(C)S(=O)(=O)c1ccc(F)cc1)OCCCC[C@@H](C)O2 | 20 | 19
C[C@H]1CN([C@@H](C)CO)C(=O)c2cc(NC(=O)Cc3cn(C)c4ccccc34)ccc2O[C@H]1CN(C)Cc1ccccc1 | -2 | -9
OC[C@@H]1[C@@H](c2ccc(C#Cc3ccccc3)cc2)[C@@H]2CN(Cc3cncnc3)CCCCN12 | -32 | -39
O=C(C[C@H]1CC[C@H]2[C@@H](COC[C@@H](O)CN2C(=O)Cc2ccccc2)O1)NC1CCC1 | 3 | 7
Cc1cccc(S(=O)(=O)N[C@@H]2CC[C@H](CCNC(=O)c3cnccn3)O[C@H]2CO)c1 | -8 | -2

Quoted at random: 7 entries already listed
SMILES | Vaccinia stage | Vaccinia stage Venus
C[C@@H](NC(=O)C[C@@H]1C=C[C@H](NC(=O)Cc2ccccn2)[C@@H](CO)O1)c1ccccc1 | 9 | 3
O=C(C[C@@H]1CC[C@H]2[C@@H](COC[C@H](O)CN2Cc2cc(F)ccc2F)O1)N1CCc2ccccc2C1 | 3 | -6
CO[C@@H]1CN(C)C(=O)c2ccc(NS(=O)(=O)c3ccccc3)cc2OC[C@H](C)N(C(=O)NC(C)C)C[C@H]1C | -1 | 2
C[C@@H]1CN([C@@H](C)CO)C(=O)c2cc(C#Cc3cccnc3)cnc2O[C@H]1CN(C)Cc1ccccc1 | -5 | -4
Cc1noc(C)c1S(=O)(=O)Nc1ccc2c(c1)C(=O)N([C@@H](C)CO)C[C@@H](C)[C@@H](CN(C)CC1CCCCC1)OCCCC[C@H](C)O2 | u | x
C[C@H]1CN([C@@H](C)CO)C(=O)c2cc(NC(=O)Cc3cn(C)c4ccccc34)ccc2O[C@H]1CN(C)Cc1ccccc1 | -2 | -9
CCN1[C@@H]2c3ccc(-c4ccc(OC)cc4)c(=O)n3C[C@@H]2[C@@H](CO)[C@@H]1C(=O)NC1CCC1 | -7 | 1

Next part:
SMILES | Vaccinia stage | Vaccinia stage Venus
OC[C@H]1[C@@H](c2ccc(-c3ccccc3F)cc2)[C@H]2CN(Cc3cncnc3)CCCCN21 | 8 | 0
CCC(=O)N(C)C[C@H]1[C@@H](c2ccc(-c3cccc(F)c3)cc2)[C@@H](CO)N1C(C)=O | u | x
CCN1[C@@H]2c3ccc(-c4ccncc4)c(=O)n3C[C@H]1[C@H](CO)[C@H]2C(=O)Nc1ccccc1 | -8 | -8
C[C@H](CO)N1C[C@H](C)[C@@H](CN(C)C(=O)Nc2ccc(F)cc2)Oc2c(NS(=O)(=O)c3ccccc3)cccc2C1=O | -5 | -5
COc1cccc(-c2ccc([C@H]3[C@H]4CN(S(=O)(=O)c5cn(C)cn5)CCCCN4[C@H]3CO)cc2)c1 | u | x
COC(=O)C[C@H]1CC[C@H]2[C@H](COc3ccc(NS(=O)(=O)c4ccc(C)cc4)cc3C(=O)N2C)O1 | 4 | 2
C[C@H](NC(=O)[C@@H]1[C@@H](CO)[C@@H]2Cn3c(ccc(C4=CCCC4)c3=O)[C@H]1N2C(=O)C1CC1)c1ccccc1 | 14 | 6
C[C@@H]1CN([C@@H](C)CO)C(=O)c2cc(NC(=O)CCN3CCOCC3)ccc2O[C@@H]1CN(C)S(=O)(=O)c1ccc(Cl)cc1 | 6 | 6
C[C@@H]1CN([C@@H](C)CO)C(=O)c2cc(C3=CCCCC3)cnc2O[C@H]1CN(C)Cc1ccccc1F | u | x
CO[C@H]1CN(C)C(=O)c2cc(NC(=O)C3CC3)ccc2OC[C@H](C)N(C(=O)Cc2ccccn2)C[C@@H]1C | 19 | 11
Cc1noc(C)c1NC(=O)Nc1cccc2c1O[C@H](CN(C)C)[C@@H](C)CN([C@@H](C)CO)C2=O | 12 | 4
CC(C)NC(=O)Nc1ccc2c(c1)C(=O)N([C@@H](C)CO)C[C@H](C)[C@H](CN(C)C(=O)NC(C)C)O2 | 1 | 0
C[C@@H]1CCCCO[C@@H](CN(C)Cc2ccc(C(=O)Nc3ccccc3N)cc2)[C@@H](C)CN([C@H](C)CO)C(=O)c2cc(NS(=O)(=O)c3ccccc3)ccc2O1 | 11 | 6
C[C@H]1CN([C@@H](C)CO)C(=O)c2cc(Br)cnc2O[C@@H]1CN(C)C(=O)NC1CCCC1 | 15 | 16
C[C@@H](NC(=O)C[C@@H]1C[C@@H]2c3cc(NS(C)(=O)=O)ccc3O[C@@H]2[C@@H](CO)O1)c1ccccc1 | -2 | -2

Compound profiles (already shown). Values in the order: Vaccinia stage	Vaccinia stage Venus
Entry for `Cc1noc(C)c1NC(=O)Nc1cccc2c1O[C@H](CN(C)C)[C@@H](C)CN([C@@H](C)CO)C2=O` : 12	4
Entry for `COc1ccc2c3c([nH]c2c1)[C@@H](CO)N(C(=O)c1ccncc1)CC31CCN(C(=O)Nc2cccc(F)c2)CC1` : 15	5
Entry for `Cc1noc(C)c1NC(=O)N1C[C@H](O)COC[C@H]2O[C@@H](CC(=O)NCC3CCCCC3)CC[C@@H]21` : 7	3
Entry for `CC(C)C#Cc1cnc2c(c1)C(=O)N([C@@H](C)CO)C[C@H](C)[C@@H](CN(C)C(=O)c1cccnc1)O2` : 10	6
Entry for `C[C@@H]1CN([C@@H](C)CO)C(=O)c2cc(NC(=O)C3CC3)ccc2O[C@H]1CN(C)C(=O)Nc1ccccc1` : 12	9
